# FPR binder – human FPR ligand, with FPRL1 counter-screen; inhibition, %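 (tested at 6.7 µM)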; FPR-expressing cells, fluorescent ligand binding, flow cytometry; P21462; 0.74% of 24,000 active;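 further: 0% = buffer wells and 100% = receptor blocker peptide wells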
# Target sequence (P21462 whole entry, looked up): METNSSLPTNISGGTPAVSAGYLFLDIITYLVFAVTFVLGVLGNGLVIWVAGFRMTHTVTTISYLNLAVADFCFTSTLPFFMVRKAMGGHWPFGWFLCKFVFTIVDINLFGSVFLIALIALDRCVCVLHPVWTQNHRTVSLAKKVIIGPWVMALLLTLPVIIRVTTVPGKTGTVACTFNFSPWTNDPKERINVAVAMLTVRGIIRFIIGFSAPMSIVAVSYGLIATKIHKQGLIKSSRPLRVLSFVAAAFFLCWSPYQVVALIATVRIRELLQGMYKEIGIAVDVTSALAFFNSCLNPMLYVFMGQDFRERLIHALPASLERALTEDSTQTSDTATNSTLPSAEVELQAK
# FPRL1 binder – binds the human formylpeptide receptor-like-1 FPRL1; 0.3% of 24,000 active; FPRL1-expressing cells, fluorescent ligand binding inhibition, flow cytometry; inhibition, %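 (tested at 6.7 µM)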; P25090;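 further: 0% = buffer alone and 100% = receptor blocker peptide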
# Target sequence (P25090 whole entry, looked up): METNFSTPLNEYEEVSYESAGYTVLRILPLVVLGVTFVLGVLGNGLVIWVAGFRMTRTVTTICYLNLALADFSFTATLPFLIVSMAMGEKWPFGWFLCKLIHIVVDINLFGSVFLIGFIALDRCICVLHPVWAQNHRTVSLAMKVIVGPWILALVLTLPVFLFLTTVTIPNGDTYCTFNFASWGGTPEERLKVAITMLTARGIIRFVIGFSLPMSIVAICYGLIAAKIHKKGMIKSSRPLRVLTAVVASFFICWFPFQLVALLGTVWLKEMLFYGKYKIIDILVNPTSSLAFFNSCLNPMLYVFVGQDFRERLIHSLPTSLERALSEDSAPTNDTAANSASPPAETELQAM
# VCAM-1 inhibition – inhibitors of TNFa-induced VCAM-1 surface display, cell-based, plate reader, pooled HUVEC, TNFa stimulus (AID 454). HUVEC TNFa-induced VCAM-1 surface immunofluorescence, plate reader; numbers were filed only for top-ranked candidate wells. inhibition, % at 5 µM. 0.2% of 10,000 active;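 active means compound among top-ranked inhibitors of TNF-induced VCAM-1 adhesion protein staining, with the hit upheld by image or statistical review; inactive means the rest, including hits rejected on review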;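 further: 0% = TNFa with vehicle and 100% = cells without TNFa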
# VCAM-1 augmentation – enhancers of VCAM-1 display on endothelial cells, imaging, high-content imaging, pooled HUVEC, TNFa stimulus (AID 457) | calls only | Pooled HUVEC, TNFa-induced VCAM-1 immunofluorescence imaging; hits of this screen are not shown here | 0.2% of 10,000 active;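 active means a top-ranked rise in VCAM-1 staining upheld on image or statistical review; inactive means the rest, including candidates rejected on review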;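 further: compounds tested at 5 µM in the well; cells exposed to compound for 24 hours before fixing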
# VCAM-1 imaging – inhibitors of TNFa-induced VCAM-1 surface display, imaging, high-content imaging, pooled HUVEC, TNFa stimulus (AID 456); HUVEC TNFa-induced VCAM-1 surface expression, immunofluorescence imaging; numbers were filed only for top-ranked candidate wells; inhibition, % at 5 µM; hits with a dose series show IC50 in µM; 0.2% of 10,000 active;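 active means top tenth filtered wells with inhibition above zero that passed visual or statistical confirmation; inactive means the rest, including hits rejected on review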;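 further: 0% = stimulated vehicle wells and 100% = unstimulated cells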
# An asterisk follows results filed as active; i = inactive; u = inconclusive; x = not tested or not shown.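 How the source made its calls, unless noted: active means mean above 30%; inconclusive means self-fluorescent; inactive means the rest.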 An excerpt; the hit share may differ from the screen's.
no.	SMILES	FPR binder	FPRL1 binder	VCAM-1 inhibition	VCAM-1 augmentation	VCAM-1 imaging
1	Cc1c2ccncc2c(C)c2c1[nH]c1ccccc12	u	-36	i	i	i
2	O=c1c2ccccc2[nH]c(=S)n1-c1ccc2c(c1)OCO2	-2	3	x	x	x
3	Cc1cc(N2C(=O)C3CCCN3C2c2cccc(Cl)c2)no1 (stereo not drawn)	-4	-7	i	i	i
4	CN1C[C@H](CNC(=O)OCc2ccccc2)C[C@@H]2c3cccc4c3c(cn4C)C[C@H]21	-15	-4	i	i	i
5	Cc1nc2ncnn2c(C)c1CCC(=O)N1CCC2(CC1)OCCO2	1	3	x	x	x
6	COc1ccc2[nH]c(C)c(CCN3CCC(=O)C(C)C3C)c2c1 (stereo not drawn)	1	-2	x	x	x
7	Cc1ccc2c(c1)C1CN(C)CCC1N2C(=O)Cn1nnc(-c2ccccc2F)n1 (stereo not drawn)	-7	0	x	x	x
8	CCC(C(=O)N1CCC2(CC1)OCCO2)c1ccccc1 (stereo not drawn)	11	0	i	i	i
9	[N-]=[N+]=CC(=O)OC[C@H](N)C(=O)O	4	-1	i	i	i
10	Nc1ccccc1C(=O)OC1CSC1	27	9	i	i	i
11	CC(C)N(CCC(C(N)=O)(c1ccccc1)c1ccccn1)C(C)C (stereo not drawn)	-4	-2	i	i	i
12	COc1ccc(Cc2nccc3cc(OC)c(OC)cc23)cc1OC	-7	2	i	i	i
13	CCOC(=O)C1C(=O)N(C)C2(C)CC1c1cc(OC)ccc1O2 (stereo not drawn)	0	0	x	x	x
14	N#CC1=C(N)Oc2c(c(=O)oc3ccccc23)C1c1ccc(OC(=O)N2CCOCC2)cc1 (stereo not drawn)	9	7	x	x	x
15	Cc1nn(Cc2ccccc2Cl)c(Cl)c1C(=O)OCC(=O)NCc1ccco1	0	-7	i	i	i
16	Cn1cc(C(=O)c2ccccc2)c2ccccc21	-2	-2	x	x	x
17	NCC(CC(=O)O)c1ccc(Cl)cc1 (stereo not drawn)	0	-15	i	i	i
18	COc1ccc(OC)c(C2=NOC(C(=O)N3CCC4(CC3)OCCO4)C2)c1 (stereo not drawn)	0	-2	i	i	i
19	CCOC(=O)N1CCC(NC(=O)CCc2nc(C3=CCN(C)CC3)no2)CC1	0	-4	x	x	x
20	O=C1C2CCCN2C(c2ccncc2)N1c1ccc(Cl)c(Cl)c1 (stereo not drawn)	-1	-4	x	x	x
21	O=C(NCC(c1cccnc1)N1CCN(c2ccccc2)CC1)Oc1ccccc1 (stereo not drawn)	-4	-3	x	x	x
22	Cc1nc2ccccc2c(=O)n1-c1ccc(F)cc1	5	0	i	i	i
23	Cc1ccnc(-n2c(-c3ccco3)nc3ccccc3c2=O)c1	-3	1	i	i	i
24	C=CCN1C(=O)CSc2ccc(C(=O)N3CCC4(CC3)OCCO4)cc21	2	-1	x	x	x
25	O=C(Cn1nc(Cc2cccnc2)c2ccccc2c1=O)N1CCC2(CC1)OCCO2	-19	-11	x	x	x
26	O=C(CN1CC(c2ccccc2)CC1=O)Nc1ccccc1 (stereo not drawn)	3	13	x	x	x
27	CCOc1cc2[nH]c(=S)n(CCCC(=O)N3CCC4(CC3)OCCO4)c(=O)c2cc1OCC	-3	-8	i	i	i
28	CN(C)C(=O)Oc1ccc(-c2nnco2)cc1	8	7	x	x	x
29	CCS(=O)(=O)N1CCCC(C(=O)N2CCC3(CC2)OCCO3)C1 (stereo not drawn)	-6	-4	x	x	x
30	C=CCN(CC=C)Cc1c[nH]c2ccccc12	0	4	x	x	x
31	Cc1cc(OCC(=O)O)c2c3c(c(=O)oc2c1)CCCC3	3	0	i	i	i
32	CCOc1cccc(N2C(=O)CC(=O)NC2=O)c1	-6	2	i	i	i
33	COc1ccc(C2SCC(=O)Nc3c2c(=O)[nH]n3C2CCCCCC2)cc1OC (stereo not drawn)	-5	0	i	i	i
34	CCOC(=O)C1C(=O)N(C)C2(C)CC1c1ccccc1O2 (stereo not drawn)	-7	6	x	x	x
35	CN1[C@@H]2CC[C@H]1CC(OC(=O)C1C=Nc3ccccc31)C2 (stereo partly drawn)	7	2	i	i	i
36	Cc1c(C(=O)N2CCC3(CC2)OCCO3)sc2ncnc(N(C)c3ccccc3)c12	-5	-4	x	x	x
37	O=P(O)(O)Cc1ccccc1OP(=O)(c1ccccc1)c1ccccc1	-2	-3	x	x	x
38	COc1ccc(OC)c(N2C(=O)NC(=O)C(CCc3ccncc3)(CCc3ccncc3)C2=O)c1	-1	6	i	i	i
39	O=C1C2CCCN2C(c2ccc(Cl)cc2)N1c1ccccn1 (stereo not drawn)	5	1	x	x	x
40	O=c1[nH]c(=O)n(-c2cccc3ccccc23)c(O)c1C=NCCCn1ccnc1	4	0	i	i	i
41	Cc1ccc2c(c1)N(CCC(=O)N1CCC3(CC1)OCCO3)C(=O)C(C)O2 (stereo not drawn)	1	-2	x	x	x
42	Cn1c(=O)cc(OCC(=O)N2CCC3(CC2)OCCO3)c2ccccc21	-4	-7	x	x	x
43	CCOC(=O)C1C2c3ccccc3O[C@@]1(C)N=C1SCC(=O)N12 (stereo partly drawn)	1	4	x	x	x
44	CN1CC=C(c2c[nH]c3ccccc23)CC1	-8	3	x	x	x
45	CCN1C(=O)c2ccccc2Sc2ccc(C(=O)N3CCC4(CC3)OCCO4)cc21	2	4	x	x	x
46	COc1ccc(S(=O)(=O)NCc2ccc(C(=O)N3CCC4(CC3)OCCO4)cc2)cc1	5	-5	x	x	x
47	O=P(OCC(F)(F)C(F)F)(N1CCCCC1)N1CCCCC1	2	1	i	i	i
48	O=c1[nH]c(=O)n(CCc2ccccc2)c(O)c1C=NCCN1CCNCC1	14	12	i	i	i
49	CC(C)[C@@]1(NC(=O)[C@@H]2C=C3c4cccc5[nH]cc(c45)C[C@H]3N(C)C2)O[C@@]2(O)[C@@H]3CCCN3C(=O)[C@H](Cc3ccccc3)N2C1=O	-4	1	i	i	i
50	CC(=O)C1C(=O)NC23CCCCC2C1c1ccccc1O3 (stereo not drawn)	0	1	i	i	i

# Following part
no.	SMILES	FPR binder	FPRL1 binder	VCAM-1 inhibition	VCAM-1 augmentation	VCAM-1 imaging
51	CCCCn1c(O)c(C(C)=NCCc2ccccc2)c(=O)[nH]c1=O	1	-8	i	i	i
52	CN1C(=O)c2ccccc2Sc2ccc(C(=O)N3CCC4(CC3)OCCO4)cc21	3	5	x	x	x
53	O=C(c1cc2c(s1)-c1ccccc1OC2)N1CCC2(CC1)OCCO2	4	4	x	x	x
54	CCS(=O)(=O)N1CCC(C(=O)N2CCC3(CC2)OCCO3)CC1	1	3	x	x	x
55	COc1ccc(CC[n+]2cc(/N=C(\C)[O-])on2)cc1OC	5	4	i	i	i
56	O=C(CNS(=O)(=O)c1cccs1)N1CCC2(CC1)OCCO2	-1	4	x	x	x
57	O=C(NCc1ccccn1)c1ccccc1Cl	2	-4	i	i	i
58	O=C(CN1C(=O)CN=C(c2ccccc2Cl)c2cc(Cl)ccc21)NCc1ccco1	4	-4	x	x	x
59	COc1ccc2[nH]cc(CCN(C)C)c2c1	-3	-1	i	i	i
60	CC(C)Cn1cc(C(=O)N2CCC3(CC2)OCCO3)c2c3ccccc3n(C)c2c1=O	-3	3	x	x	x
61	CC(=O)Nc1ccc(S(=O)(=O)NC(CC(=O)N2CCC3(CC2)OCCO3)C(C)C)cc1 (stereo not drawn)	-6	0	x	x	x
62	CCCC[n+]1cc(/N=C(\[O-])OC)on1	-7	-1	x	x	x
63	Cc1cccc(N2CCc3c2nc2ccccc2c3N)c1	12	-1	i	i	i
64	COc1ccc(CCn2c(O)c(C=NCCCN(C)C)c(=O)[nH]c2=O)cc1OC	-1	1	i	i	i
65	COc1ccc(-n2c(=O)[nH]c3ccccc3c2=O)c(OC)c1	-2	-3	x	x	x
66	C#CCN(C)C(C)Cc1ccccc1 (stereo not drawn)	7	0	i	i	i
67	CCCCn1c(O)c(C=NC2CCCCC2N)c(=O)[nH]c1=O (stereo not drawn)	15	-6	i	i	i
68	COc1ccc(C(CC(=O)N2CCC3(CC2)OCCO3)NS(=O)(=O)c2ccc(OC)cc2)cc1 (stereo not drawn)	-2	-4	x	x	x
69	Cc1cc(C)c(C2=NOC(O)(C(F)(F)F)C2)c(=O)[nH]1 (stereo not drawn)	-4	0	x	x	x
70	CN(C)CCc1nc2ccccc2c(=O)n1-c1ccccc1	-2	2	i	i	i
71	CN1CCN(c2nc3ccccc3c(=O)n2-c2ccccc2)CC1	-3	-1	i	i	i
72	Cc1nn(-c2ccccc2)c2c1CC1(C(=O)N(C)C(=O)N(C)C1=O)C1CCCCN21 (stereo not drawn)	-4	-4	i	i	i
73	COc1ccc(C2C(C(=O)N3CCC4(CC3)OCCO4)CC(=O)N2c2ccc(OC)cc2)cc1 (stereo not drawn)	-1	-4	x	x	x
74	CN1C2CCC1CC(OC(=O)c1ccc(Cl)cc1)C2 (stereo not drawn)	5	1	x	x	x
75	CCCNS(=O)(=O)c1ccc(OCC(=O)N2CCN(Cc3ccccc3)CC2)cc1	-5	2	i	i	i
76	COc1ccc(CC2C(=O)NC(=O)NC2=O)c(OC)c1	-6	3	i	i	i
77	O=C(c1ccc2c(c1)ncn2C1CCCCCC1)N1CCC2(CC1)OCCO2	-1	-3	x	x	x
78	CN(C)c1nc(-c2ccccc2)[n+](C)s1	-7	9	x	x	x
79	Cc1ccc(O)c(CN2CCN(c3ccccc3)CC2)c1	2	-4	i	i	i
80	NC(=O)OCCSc1nnc(-c2cccc(C(N)=S)c2)o1	-7	-2	i	i	i
81	Cc1cccc(-n2c(C)nc3cc(C(=O)N4CCC5(CC4)OCCO5)ccc32)c1	-2	6	x	x	x
82	O=C(C(Cc1ccccc1)NS(=O)(=O)c1ccc(F)cc1)N1CCC2(CC1)OCCO2 (stereo not drawn)	2	-2	i	i	i
83	CC(C)(C)OC(=O)c1c(N)n(Cc2ccco2)c2nc3ccccc3nc12	8	-10	i	i	i
84	O=C(NC1(C(F)(F)F)Oc2ccccc2O1)N1CCC2(CC1)OCCO2	-9	3	x	x	x
85	COC(=O)C(O)(c1c(C)[nH]n(-c2ccccc2)c1=O)C(F)(F)F (stereo not drawn)	1	3	x	x	x
86	O=C(c1ccc2nc(-c3ccco3)c(-c3ccco3)nc2c1)N1CCC2(CC1)OCCO2	0	6	i	i	i
87	Cc1cc(Cl)ccc1OC(C)C(=O)O (stereo not drawn)	-2	0	x	x	x
88	CCn1c(=O)cc(OCC(=O)N2CCC3(CC2)OCCO3)c2ccccc21	1	1	x	x	x
89	Cc1nc2ccccc2c(=O)n1-n1cnnc1	2	7	x	x	x

# Source: PubChem BioAssay (several laboratories)
